# High-throughput results deposited in PubChem BioAssay by National Center for Advancing Translational Sciences (NCATS).
# VACV Venus inh: inhibitors of vaccinia virus (Venus reporter). AID 720580. 330,000 tested, 0.46% active. Vaccinia virus Venus reporter expression, fluorescence. Potency, µM (doses to about 36.5 µM), for inactives: top-dose activity change, negative = inhibition, most hits filed as inhibitors; active means well fitted inhibition curve with a large enough effect; inconclusive means small, poorly fitted or top-dose-only effect; inactive means no such curve, though single readings can be large or run the other way; tested in A549 cells; note: nearly all actives have a fitted effect of over 30% in size; inactives centre near -10
# Vaccinia mCherry: inhibitors of vaccinia virus infection (mCherry reporter signal); Potency, µM (titrated, usually from 36.5 µM), without a hit: at the highest dose activity change, negative = inhibition, usual class: inhibitors; 310,000 tested, 0.63% active; Vaccinia virus mCherry reporter infection, fluorescence; about a quarter of the inactives have no number; active = well fitted inhibition curve with a large enough effect; inconclusive = small, poorly fitted or top-dose-only effect; inactive = no such curve, though single readings can be large or run the other way; tested in A549 cells; note: nearly all actives have a fitted effect of over 35% in size; inactives centre near -10
# An asterisk follows results filed as active; i = inactive; ? = inconclusive; nt = no result given; [ ] = dose if it differs, or a comment. % is set by controls: 0 for no effect and ±100 for the full control effect; potency is the fitted concentration of half-maximal effect. The order is random; about 0.82% have a hit in one of these screens.
SMILES,VACV Venus inh,Vaccinia mCherry
CCOC(=O)c1cccc(NC(=O)COc2nsnc2N2CCOCC2)c1,-12%,-10%
C=CCN1C(=O)C2C(C(=O)NC3CCCC3)C3(C)C=CC2(O3)C1C(=O)NC1CCCC1 (configuration not stated),-13%,-20%
CC(C)CC(=O)N1c2nc(C(C)C)nn2C2(CCCCC2)[C@@H]2CCCC[C@@H]21,-3%,-2%
CSC(=O)NC(=O)NC(=O)c1ccc([N+](=O)[O-])cc1,-11%,i
O=C(Oc1cc(Cl)ccc1Cl)c1ccc(N2CCOCC2)c([N+](=O)[O-])c1,-3%,-9%
COc1ccc2[nH]c3ccccc3c2c1,-20%,nt
CCOC(=O)C1C(C(=O)OC)=C(c2ccc(F)cc2)c2ccccc2N1S(=O)(=O)C(F)(F)F (configuration not stated),-17%,i
COc1ccc(N2CCN(C(=O)CCNS(=O)(=O)c3ccc(Br)s3)CC2)cc1,-26%,nt
O=C(NCc1ccccc1)C(=O)Nc1cccc(C(=O)O)c1,0%[7.34 µM],i[7.34 µM]
COc1ccc(OC)c(S(=O)(=O)NC(=O)C2(C)CCN2C(=O)Cc2ccc(Cl)cc2Cl)c1 (configuration not stated),1%,i
CC(C)c1nc2c(c(=O)c3ccccc3n2C)c(=O)n1CCc1ccccc1,2%,i
COc1cc(/C=N/NC(=O)NC23CC4CC(CC(C4)C2)C3)ccc1O,?,-7%
CCCN(CCC)CCNC(=O)c1cc2c(=O)n(CC)c3ccccc3c2s1,-8%,i
CC1=CC(=O)Nc2ccccc2S1,-1%,i
N#Cc1cccnc1N1CCN(C(C(=O)NC2CCCC2)c2ccco2)CC1 (configuration not stated),-13%,i
O=C(Cc1c[nH]c2ccccc12)Nc1nc2ccccc2[nH]1,-16%,-19%
Cc1ccccc1C(=O)NCCCc1ccccc1,-8%,i
N#Cc1sc2nc3c(c(-c4ccco4)c2c1N)CCCC3,-15%,-15%
CCCn1cnc2c(SCc3ccc(Cl)cc3)nc(N)nc21,?,?
Cc1ccc(C)c(NC(=O)C(Cc2ccccc2)n2cccc2)c1 (configuration not stated),-8%,-13%
Cc1ccc(S(=O)(=O)N2[C@H](CC(=O)OCc3ccccc3)OC[C@@H]2C(C)C)cc1,-4%,?
C[C@H](NC(=O)NC1CCCc2ccccc21)C(=O)O (some centres not stated),17%,nt
COc1ccc(C(=O)N(CC2CCCO2)C(C(=O)NCCC(C)C)c2ccc(C)cc2)cc1OC (configuration not stated),-15%,i
CC(C)(C)NC(=O)C(c1ccc(O)cc1)N(Cc1ccccc1)C(=O)CCC(=O)Nc1nccs1 (configuration not stated),-11%,-11%
O=C(O)c1cccc(-n2cccc2/C=C2/NC(=O)N(c3cccc(Cl)c3)C2=O)c1,-13%,-7%
CC(Sc1nc(=O)cc(N)n1CCc1ccccc1)C(=O)Nc1cccc(Cl)c1 (configuration not stated),-13%,-17%
Cc1ccc(-n2ncc3c(NCCCN4CCOCC4)ncnc32)cc1,-18%,-15%
CC(C)NC(=O)c1ccc(-n2nc(C(F)(F)F)c3c2CCCC3)cc1,-4%,-13%
CCCn1c(NCc2cc(C)ccc2O)nc2ccccc21,-29%,?
Cc1cccc(/C=C\c2nc3ccccc3c(=O)[nH]2)c1,-18%,?
O=c1c2ccc([N+](=O)[O-])cc2ncn1Cc1ccccc1C(F)(F)F,4%,-2%
CN1/C(=C\C(=O)C[n+]2cccc(Br)c2)C(C)(C)c2ccccc21,-10%,?
CCc1c(C(=O)NN2C(=O)C3CCCCC3C2=O)csc1C (configuration not stated),-12%,-17%
Cc1ncc2c(c1CNC(=O)/C=C/c1cccs1)CCN(C(=O)C1CCCO1)C2 (configuration not stated),-1%,-1%
CC(C)C1CC2=C(C(=O)OC(C)(C)O2)C(c2ccc(Cl)cc2)O1 (configuration not stated),6%,6%
CCc1cc2c(N3CCN(C(=O)c4ccco4)CC3)ncnc2s1,-21%,-12%

# Some of the entries above in a different format:
CCCn1c(NCc2cc(C)ccc2O)nc2ccccc21
  VACV Venus inh: -29%; Vaccinia mCherry: ?

Cc1cccc(/C=C\c2nc3ccccc3c(=O)[nH]2)c1
  VACV Venus inh: -18%; Vaccinia mCherry: ?

O=c1c2ccc([N+](=O)[O-])cc2ncn1Cc1ccccc1C(F)(F)F
  VACV Venus inh: 4%; Vaccinia mCherry: -2%

CN1/C(=C\C(=O)C[n+]2cccc(Br)c2)C(C)(C)c2ccccc21
  VACV Venus inh: -10%; Vaccinia mCherry: ?

# Next section.
SMILES,VACV Venus inh,Vaccinia mCherry
CCN(CC)CCCn1c(C)cc2c(c1=O)C(c1cc(OC)c(OC)cc1OC)C(C#N)=C(N)O2 (configuration not stated),5%,nt
COc1cc(/C=C/C2=NNC(=O)CC2)cc(OC)c1OC,-17%,i
O=C(CSC(=S)N1CCSCC1)c1ccccc1,-16%,0%
NC(=O)N/N=C/c1cn(-c2ccccc2)nc1-c1ccccc1,-13%,-14%
C#CNC(=O)C1(CC=C)CCNCC1,3%,i
CC(C)(C)N(NC(=O)OCc1ccccc1)C(=O)c1ccccc1,1%,-2%
Cc1nc2ccc(S(=O)(=O)N(CC(=O)Nc3cccc(C)c3C)Cc3ccccc3)cc2s1,-22%,-28%
Cc1ccccc1C(=O)Nc1ccccc1NC(=O)c1ccccc1Br,-9%,-7%
COCCCn1c(C(=O)Nc2ccc3c(c2)OCO3)cc2c(=O)n3ccccc3nc21,0%[7.34 µM],i[7.34 µM]
COc1cc(NC(=S)N2CCN(C(=O)c3ccco3)CC2)c(OC)cc1Cl,-23%,-6%
CCOC(=O)COn1c(=O)c(-c2cccs2)[n+]([O-])c2ccccc21,-12%,-17%
CCc1nc2sc3c(c2c(=O)n1N)CCC3,-3%,-14%

# Random excerpt: 3 records from the list
SMILES,VACV Venus inh,Vaccinia mCherry
O=C(CSC(=S)N1CCSCC1)c1ccccc1,-16%,0%
NC(=O)N/N=C/c1cn(-c2ccccc2)nc1-c1ccccc1,-13%,-14%
CC(C)(C)N(NC(=O)OCc1ccccc1)C(=O)c1ccccc1,1%,-2%

# Following part:
SMILES,VACV Venus inh,Vaccinia mCherry
CCOc1ccc(/C(CCC(=O)O)=N/NC(=S)NCCc2ccccc2)cc1,-11%,-11%
Cc1[nH]c2ccc(CNS(=O)(=O)c3ccc(S(=O)(=O)N4CCOCC4)cc3)cc2c1C,-11%,-19%
O=C(Nc1ccc2c(c1)OCCO2)C1CCN(S(=O)(=O)c2cccc3nsnc23)CC1,-3%,-9%
COC(=O)c1cc2oc(C)cc2n1CC(=O)Nc1ccc(C)c(C)c1,-7%,-9%
Clc1ccc(-n2c(Cc3ccccc3)nnc2SCc2nc(-c3cccs3)no2)cc1,-6%,-4%
O=C(/C=C/c1ccc([N+](=O)[O-])cc1)N1CCN(S(=O)(=O)c2ccccc2)CC1,-18%,i
c1ccc2nc3c(cc2c1)CCCCCC3,-20%,-19%
CC(C)NC(=O)C(=O)NCCc1ccc(Cl)cc1,-35%,nt
Cc1ccc(CNC(=O)C23CN(Cc4ccccc4)CC2C(c2ccc([N+](=O)[O-])cc2)=NO3)cc1 (configuration not stated),-23%,-12%
COC(=O)c1c(-c2ccc(OC)cc2)sc2ccc(N3CCOCC3)cc12,-8%,?
Cc1ccc(S(=O)(=O)N2CCN(C(=O)CSc3nnc(C)s3)C2)cc1,7%,-6%
COC(=O)c1ccccc1NC(=O)C1CCN(C(=O)c2cc(OC)c(OC)c(OC)c2)CC1,-23%,i[1.46 µM]
C#CCSc1nc2sc3c(c2c(=O)n1Cc1ccccc1)CCCC3,-5%,-10%
CCCCN(C)S(=O)(=O)c1ccc(NC2=NS(=O)(=O)c3ccccc32)cc1,1%,-1%
CCOC(=O)c1c(NC(=O)CSc2nccn2C)sc(C(=O)NC)c1C,1%,-6%
O=C(Nc1cccnc1)C1Cc2c(-c3ccccc3Oc3ccccc3)ccnc2O1 (configuration not stated),-29%,0%
Cn1c(=O)n(C)c2cc([N+](=O)[O-])c(N3CCN(C(=O)c4ccccc4)CC3)cc21,-3%,-14%
O=C(c1cccc(F)c1)N1CCN(CC2CC3C=CC2C3)CC1 (configuration not stated),-36%,nt
Cc1ccccc1NC(=O)Nc1c(C)n(C)n(-c2ccccc2)c1=O,-2%,-3%
Cc1ccc(CNC(=O)CSc2nc3ccsc3c(=O)n2-c2ccc(C(=O)O)cc2)cc1,-5%,0%
CCC(c1nnc(SC(C)C(=O)NC2CC2)n1-c1ccc(OC)cc1)N(C)C (configuration not stated),-8%,-19%
O=C(COc1cccc2ccccc12)NNC(=O)Nc1ccccc1,-11%,i
CC1(C)CC[C@@]23CC[C@]4(C)[C@@](OC2=O)(C3C1)[C@H]1O[C@H]1C1[C@@]2(C)CC[C@H](O)C(C)(C)C2CC[C@]14C (some centres not stated),-6%,-17%
Cc1cc(C)cc(NC(=S)N2CCC(NC(=O)c3ccco3)CC2)c1,7%,-6%
COc1ccccc1-c1cn(C(C)(C)C)nc1C,-14%,-2%
Cc1c(CCC(=O)O)c(=O)oc2c(C)c3occ(-c4ccc(Br)cc4)c3cc12,-28%,-24%
Cn1c(=O)c2sccc2n2c(CCC(=O)N3CCN(c4cccc(Cl)c4)CC3)nnc12,-2%,-6%
CCCCC(=O)NCCNc1nc2c(c(=O)n(C)c(=O)n2C)n1Cc1ccc(F)cc1,?,i
Cc1cc(NC(=O)CSc2ccccn2)cc(NC(=O)CSc2ccccn2)c1,-8%,-16%
COC(=O)c1ccc(OCC(=O)c2ccc(C)c(C)c2)cc1,-21%,-15%
CC(C)(C)c1ccc(OCC(=O)NNC(=O)Cc2cccs2)cc1,-16%,i
CCc1c(C(=O)NNC(=S)NCC2CCCO2)csc1C (configuration not stated),-1%,-11%
Cc1cccc(NC(=O)c2cccc([N+](=O)[O-])c2O)c1C,-15%,i
CCCCNc1c(NC(C)=O)c(=O)oc2ccccc12,13%,-5%
CC(=O)c1cccc(N(C(=O)CNC(=O)c2cccs2)C(C(=O)NCC2CCCO2)c2ccccc2)c1 (configuration not stated),1%,-10%
CCc1nc2ccc(C(=O)NCCOc3ccc(OC)cc3)cn2c1N(CCN(C)C)CC1CC1,0%,4%
COC(=O)c1c(C(=O)OC)c(-c2ccc(Cl)cc2)n2c1CS(=O)(=O)C2,-12%,i
CC(C)[C@H](NC(=O)C1CCN(S(=O)(=O)c2ccccc2)CC1)C(=O)NCc1ccccn1,0%,-14%
O=[N+]([O-])/C(Cl)=C1\NCCN1Cc1ccc(Cl)nc1,-9%,i
Cn1c(=O)oc2cc(S(=O)(=O)NCc3ccc(F)cc3)ccc21,-8%,i
O=C(CSc1nc(O)c(C/C=C/c2ccccc2)c(=O)[nH]1)Nc1cccc(F)c1,-11%,-11%
C=CCn1c(=O)c2ccccc2n2c(SCC(=O)NCc3cccs3)nnc12,-8%,nt
O=C(CCN1CCCC1)Nc1ccccc1,-15%,-20%
CCN1CCN(Cc2nc3cc(NC(=O)c4cccc([N+](=O)[O-])c4)ccc3n2CC)CC1,-8%,-11%
CC(=O)CSc1ncnc2scc(-c3ccc(F)cc3)c12,-5%,i
CC(=O)c1cccc(-c2ccnc3c2CC(C(=O)NCc2ccc(F)c(F)c2)O3)c1 (configuration not stated),?,-10%
CN(C)Cc1csc(NC(=O)Nc2ccccc2Cc2ccccc2)n1,-16%,i
Cc1ccc(C)c(NC(=O)CSc2nncn3c2cc2sccc23)c1,?,?
Cc1ccc(OCC(=O)Nc2ccc(O)c(-c3nc4cc(C)c(C)cc4o3)c2)cc1,-12%,17%
Cc1noc(C)c1C(=O)NC1CCCc2ccccc21 (configuration not stated),2%,-5%
Cc1sc(NC(=O)c2ccco2)nc1-c1ccccc1,-17%,nt
CCOc1ccccc1NC(=O)COC(=O)C(CC)c1ccccc1 (configuration not stated),-8%,-13%
Cc1cccc(NC(=S)NCCc2ccc(F)cc2)c1C,-13%,?
O=[N+]([O-])c1ccccc1S(=O)(=O)Nc1ccn(Cc2c(F)cccc2Cl)n1,-9%,i
O=S(=O)(c1cccc(-c2nc3n(n2)Cc2ccccc2-3)c1)N1CCCC1,-4%,-27%
Cc1nc(N2CCC(C)CC2)c2oc3ccccc3c2n1,?,i[1.46 µM]
CCN1C(=O)C2(C(C#N)=C(N)Oc3n[nH]c(COC)c32)c2ccccc21 (configuration not stated),-3%,-10%
Cc1ccccc1C(=O)Nc1cc(-c2cc(C(C)(C)C)oc2C)nn1C,-14%[7.34 µM],-2%[7.34 µM]
Cc1ccc(NC(=O)NC(=O)CN2CCN(c3ccc(O)cc3)CC2)c(C)c1,-6%,?
CNC(=O)O/N=C/C(C)(C)SC,-11%,-4%

# (list continues)
SMILES,VACV Venus inh,Vaccinia mCherry
Cc1ccccc1CS(=O)(=O)Cc1ccc(C(=O)NCCc2ccccc2)o1,-3%,-5%
Cc1nn(Cc2c(F)c(F)c(F)c(F)c2F)c(C)c1NC(=O)c1ccc(COc2ccccc2Cl)cc1,-5%,-13%
COc1ccc(N2CCN(c3ccc(-c4nc(-c5ccccc5C)no4)cc3[N+](=O)[O-])CC2)cc1,-12%,-9%
CC1(C)[C@@H](O)CC[C@]2(C)[C@H]3C(=O)C=C4[C@@H]5C[C@@](C)(C(=O)O)CC[C@]5(C)CC[C@@]4(C)[C@]3(C)CC[C@@H]12,-10%,-20%
CCOC(=O)c1cc2c(=O)n3ccccc3nc2n(CC2CCCO2)c1=NC(=O)c1cccc(C)c1 (configuration not stated),?,?
N#CC1=C(N)NC(SCC(=O)O)=C(C#N)C12CCCC2,-8%,nt
